Compound activity from PubChem.
VACV mCherry inh – inhibitors of vaccinia virus infection (mCherry reporter signal); Vaccinia virus mCherry reporter infection, fluorescence; about a quarter of the inactives have no number; Potency, µM (series often up to 36.5 µM), for inactives: at the highest dose activity change, negative = inhibition, hits mostly inhibitors; actives 0.63% (n = 310,000); active = well fitted inhibition curve with a large enough effect; inconclusive = small, poorly fitted or top-dose-only effect; inactive = no such curve, though single readings can be large or run the other way; tested in A549 cells; further: nearly all actives have a fitted effect of over 35% in size; inactives centre near -10
VACV Venus inh – vaccinia inhibition (Venus reporter) | AID 720580 | Potency, µM (series often up to 36.5 µM), for the others: top-dose activity change, negative = inhibition, usual class: inhibitors | actives 0.46% (n = 330,000) | Vaccinia virus Venus reporter expression, fluorescence; active means well fitted inhibition curve with a large enough effect; inconclusive means small, poorly fitted or top-dose-only effect; inactive means no such curve, though single readings can be large or run the other way; tested in A549 cells; further: nearly all actives have a fitted effect of over 30% in size; inactives centre near -10
* = called active by the depositor; i = inactive; ? = inconclusive; . = not tested or not shown; & = joins results of further samples; [ ] = another dose, or the depositor's remark. On the % scale 0 is the no-effect control and ±100 the full control effect; potency means the concentration at half of the fitted maximal effect.

SMILES	VACV mCherry inh	VACV Venus inh
CCCCC(=O)NC(Nc1ccc(C)cn1)(C(=O)OCC)C(F)(F)F (stereo not given)	-9.1%	-2.0%
COc1ccc(C(c2nnnn2C2CCCCC2)N2CCN(c3ccccc3F)CC2)cc1 (stereo not given)	.	-18.5%
Cc1cccc(C(=O)NNC(=O)c2csc(N3CCOCC3)n2)c1C	i	-11.6%
COc1cc(NC(=O)CC2C(=O)N(c3cccc(C)c3)C(=O)N2Cc2ccco2)cc(OC)c1 (stereo not given)	-6.0%	-6.3%
CCn1nc(C(=O)N[C@@H](CCSC)c2nc3ccccc3[nH]2)c2ccccc2c1=O	-24.0%	-17.4%
CCc1ccccc1NC(=O)CSCc1cnn(-c2ccccc2)c1-n1cccc1	-13.8%	-19.8%
CC1=NNC(=O)C1CCC(=O)N/N=C\c1cccc(Cl)c1 (stereo not given)	-2.9%	0.1%
c1ccc(C2c3c(ccc4ccccc34)Oc3ncn4nc(-c5ccco5)nc4c32)cc1 (stereo not given)	i	-0.8%
CSc1ccc(CN(C)C(=O)CSCC(=O)Nc2cc(C)on2)cc1	i	-3.5%
CCOCCOc1cc(NCc2ccccc2)c2ncn(C(C)C)c2c1	-0.9%	-5.8%
CCN(CC(=O)NCc1cccs1)C(=O)c1ccc(-c2ccccc2F)o1	-5.4%	-6.5%
CCN(CC(=O)Nc1c(F)cccc1F)C(=O)CN1C(=O)NC2(CCCC2)C1=O	-11.7%	5.3%
COc1ccccc1C(=O)NC(=S)Nc1cc(C(=O)O)ccc1C	-8.1%	-8.2%
Cc1cc(=O)oc(C)c1C(=O)NNC(=O)C1(C)CC1Br (stereo not given)	-9.0%	-12.0%
COc1ccc(Cl)cc1NC(=S)NN1CCOCC1	-20.8%	-15.5%
Cc1ccc(NC(=O)CN2CCc3ccccc3C2)cc1S(=O)(=O)N1CCOCC1	i	-11.9%
CC(=O)Nc1ccc(S(=O)(=O)Nc2nc3ccccc3nc2Sc2nncn2C)cc1	-6.9%	19.6%
O=C(CC1SC(N2CCCC2)=NC1=O)Nc1ccc(C(=O)NCCc2ccc(F)cc2)cc1 (stereo not given)	-14.3%	-9.1%
COc1cc(NC(=O)CN2CCCCCC2)cc(OC)c1	-11.8%	-2.9%
Cc1cc(C)c(C)c(OCC(O)CN2CCN(c3ccccn3)CC2)c1 (stereo not given)	-22.6%	-12.8%

Complete entries, quoted from the list. Order of values: VACV mCherry inh, VACV Venus inh
Profile of Cc1ccc(NC(=O)CN2CCc3ccccc3C2)cc1S(=O)(=O)N1CCOCC1 → i, -11.9%
Profile of O=C(CC1SC(N2CCCC2)=NC1=O)Nc1ccc(C(=O)NCCc2ccc(F)cc2)cc1 (stereo not given) → -14.3%, -9.1%

More records follow.
SMILES	VACV mCherry inh	VACV Venus inh
CC1CN(S(=O)(=O)c2cccc(C(=O)Nc3ccccc3N3CCCC3)c2)CC(C)O1 (stereo not given)	-10.1%	-27.8%
O=C(CCCn1c(SCC(=O)NCCc2ccccc2)nc2ccccc2c1=O)NCC1CCCO1 (stereo not given)	i	1.6%
C=CCSc1nnc2c(n1)[nH]c1c(C)cccc12	?	?
O=C(O)c1cscc1Cc1cccs1	-3.0%	2.9%
CC(=O)Nc1ccc(S(=O)(=O)NCCc2csc(C)n2)cc1	i	-10.3%
O=C(/C=C(\O)c1ccccc1)C(=O)NNC(=O)c1ccccc1[N+](=O)[O-]	-9.1%	-0.8%
O=C(Nc1cc(C(F)(F)F)ccc1Cl)c1cc(S(=O)(=O)NCc2ccccc2)ccc1F	-17.0%	-16.8%
Cc1cc(C)nc(N(C#N)Cc2cccc3ccccc23)n1	-0.4%	-10.6%
Cc1ccccc1Nc1nnc(C)c(=O)[nH]1	-12.7%	-7.5%
COc1ccccc1-n1c(SCC(=O)N2CCc3ccccc32)nc2c(c1=O)SCC2	-3.6%	-9.9%
CC(=O)C1=C(C)NC(C)=C(C(C)=O)C1c1cn(-c2ccccc2)nc1-c1cccs1	.	-10.3%
CCc1cccc(C)c1NC(=O)NC1COc2ccccc2C1 (stereo not given)	-11.0%	-0.3%
CC(C)=NOc1nc(N(C)C)nc(N2CCOCC2)n1	i	-21.7%
O=C(c1cc2ccccc2oc1=O)N(Cc1ccccc1)C1CCS(=O)(=O)C1 (stereo not given)	-11.6%	-6.6%
Cc1ccc(Nc2nc(Nc3ccc(C)cc3)nc(SC3=NCCS3)n2)cc1	?	-26.2%
CCN1C(=NCCc2ccccn2)N[C@@H](c2cccc(F)c2)C(C(=O)OC)=C1C	-12.3%	-1.0%
O=C(CSCc1ccco1)N1CCc2ccccc21	?	-2.9%
O=c1[nH]c(CN2CCN(c3ccccc3O)CC2)nc2ccccc12	.	-12.4%
COc1ccc(OC)c(-c2csc(NC(=O)Cc3ccccc3)n2)c1	?	?
COc1ccccc1C(=O)NC(=O)COC(=O)C1(C)CC1(Cl)Cl (stereo not given)	-17.1%	-12.2%
O=C(C1CCN(S(=O)(=O)c2c(Cl)cccc2Cl)CC1)N1CCCC1	-0.9%	-19.4%
O=C(/C=C/c1cccc([N+](=O)[O-])c1)Nc1ccc(NC(=O)c2cccs2)cc1	i	-11.2%
Cc1ccnn1C(C)C(=O)O (stereo not given)	i	-1.0%
Cc1cccc(N2C(=O)C(CC(=O)Nc3cccc(F)c3)N(Cc3cccs3)C2=O)c1 (stereo not given)	-2.3%	-2.7%
CCOC(=O)NCc1ccccc1	i	-16.4%
Cc1nn(CCC(=O)NNC(=S)Nc2ccccc2)c(C)c1Br	-2.2%	-9.5%
CC(C)CNC(=O)[C@H](Cc1ccccc1)NC(=O)c1cccs1	-15.6%	-5.8%
COc1ccc(CNS(=O)(=O)c2cc(Br)cc3c2N(C(C)=O)C(C)C3)cc1 (stereo not given)	-9.7%	-3.6%&-8.6%
COC(=O)c1cc(O)c(O)c(O)c1	-9.9%	-4.8%
CCOC(=O)c1ccc(N2C(=O)c3n[nH]c(-c4ccco4)c3C2c2ccc(OCC)cc2)cc1 (stereo not given)	-8.3%[7.34 µM]	-9.3%[7.34 µM]

Sorted by SMILES length (high to low): part of the list above
SMILES	VACV mCherry inh	VACV Venus inh
O=C(CC1SC(N2CCCC2)=NC1=O)Nc1ccc(C(=O)NCCc2ccc(F)cc2)cc1 (stereo not given)	-14.3%	-9.1%
Cc1cccc(N2C(=O)C(CC(=O)Nc3cccc(F)c3)N(Cc3cccs3)C2=O)c1 (stereo not given)	-2.3%	-2.7%
COc1ccccc1-n1c(SCC(=O)N2CCc3ccccc32)nc2c(c1=O)SCC2	-3.6%	-9.9%
CCCCC(=O)NC(Nc1ccc(C)cn1)(C(=O)OCC)C(F)(F)F (stereo not given)	-9.1%	-2.0%
COc1ccccc1C(=O)NC(=S)Nc1cc(C(=O)O)ccc1C	-8.1%	-8.2%
COc1ccc(Cl)cc1NC(=S)NN1CCOCC1	-20.8%	-15.5%

Four entries picked at random from the list so far, as already listed:
SMILES	VACV mCherry inh	VACV Venus inh
CCOC(=O)NCc1ccccc1	i	-16.4%
Cc1ccnn1C(C)C(=O)O (stereo not given)	i	-1.0%
COC(=O)c1cc(O)c(O)c(O)c1	-9.9%	-4.8%
Cc1nn(CCC(=O)NNC(=S)Nc2ccccc2)c(C)c1Br	-2.2%	-9.5%

Next structures
SMILES	VACV mCherry inh	VACV Venus inh
Cc1ccc(NC(=O)Cn2ccc([N+](=O)[O-])n2)cc1C	-2.8%	-7.6%
COc1ccc(C(=O)CNc2ccccc2CO)cc1	-5.5%	-10.3%
CCCn1c2ccc(F)cc2c2nnc(SCCN(CC)CC)nc21	-17.4%[7.34 µM]	-9.0%[7.34 µM]
Cc1nc2ccn(Cc3ccco3)c(=O)c2cc1C(=O)NCc1ccc(F)cc1	-14.8%	-12.6%
CC(C)[N+](C)(CCC(C(N)=O)(c1ccccc1)c1ccccc1)C(C)C	-8.1%	-9.8%&-3.8%
COC(=O)c1sccc1S(=O)(=O)N(CC(=O)Nc1ccccc1)c1ccccc1	0.7%	1.9%
CCNc1cc(N2CCCC2)ccc1[N+](=O)[O-]	-19.5%	-4.2%
CC[N+](C)(C)c1cccc(O)c1	-14.7%&-7.5%	-13.5%&-13.1%
CC1(c2nnc(Cc3ccccc3)o2)CC(c2ccc(Cl)cc2)=NO1 (stereo not given)	i	-33.3%
Cc1ccc(S(=O)(=O)CC(N)=O)cc1	-4.1%	2.0%

In the list so far, 3 have bromine:
SMILES	VACV mCherry inh	VACV Venus inh
Cc1cc(=O)oc(C)c1C(=O)NNC(=O)C1(C)CC1Br (stereo not given)	-9.0%	-12.0%
Cc1nn(CCC(=O)NNC(=S)Nc2ccccc2)c(C)c1Br	-2.2%	-9.5%
COc1ccc(CNS(=O)(=O)c2cc(Br)cc3c2N(C(C)=O)C(C)C3)cc1 (stereo not given)	-9.7%	-3.6%&-8.6%

The list continues.
SMILES	VACV mCherry inh	VACV Venus inh
O=C1COc2ccc(C(=O)CSc3nc4ccccc4c(=O)n3-c3ccc(Cl)c(Cl)c3)cc2N1	-4.6%	-2.1%
Cn1c(N)c(C(=O)COC(=O)CC2CC3CCC2C3)c(=O)n(C)c1=O (stereo not given)	-0.6%	-11.9%
O=C1N(Cc2ccccc2)c2ccccc2C1(O)c1c[nH]c2ccccc12 (stereo not given)	-12.3%	-7.1%
CCc1cc(-c2nnn(CCC3COCCO3)c2CC)ccc1-c1cn(Cc2ccccc2)nn1 (stereo not given)	?	?
N[C@@H](Cc1ccccc1)C(=O)O	-2.6%	-13.0%
CN(C)CCN(C)C1CN(Cc2ccccc2)S(=O)(=O)C1 (stereo not given)	2.0%	-2.5%
CCCN1Cc2cccc(C(=O)NC(CC(=O)OCC)c3ccc(C)cc3)c2C1=O (stereo not given)	?	-7.2%
COc1ccccc1-c1noc(-c2ccc(NC3CCCCC3)c([N+](=O)[O-])c2)n1	-11.2%	-9.1%
CC(=O)OCc1cnc(C)c2oc(=O)c(C(=O)Nc3ccc(C)cc3Cl)cc12	-8.1%	0.1%
CC(NC(=O)c1ccc(OC2CCN(S(=O)(=O)N(C)C)CC2)cc1)C1CC1 (stereo not given)	-16.9%	-20.3%
CCOC(=O)C1(C)C=C(Nc2ccc(C(=O)O)cc2)C(=O)N1c1ccc(C(=O)O)cc1 (stereo not given)	-5.4%	-4.6%
Cc1cccc(/C=N/NC(=O)c2ccc(NC(=O)c3ccc(F)cc3)cc2)n1	-19.4%	-13.3%
CC(CCc1ccccc1)NC(=S)NC(=O)c1ccco1 (stereo not given)	-8.2%	-5.3%
COc1ccc(CCNC(=O)c2c(C)nc3ccccn23)cc1	i	4.6%
CC(=O)C1CCC2C3CC=C4CC(O)CC[C@@]4(C)C3CC[C@]12C (stereo not given in full)	-11.0%	-5.6%
CCOC(=O)/C(C#N)=C/C1=C(N2CCOCC2)C(C)(C)OCC1	-19.1%	-8.9%
CN1CCN(S(=O)(=O)c2ccc(NC(=O)c3ccc([N+](=O)[O-])cc3)cc2)CC1	?	-9.5%
Cc1ccc(S(=O)(=O)NC2CCCCC2)c(C)c1NS(C)(=O)=O	-15.0%	-17.2%
CCOC(=O)c1ccc(Nc2c(-c3cccc(O)c3)nc3nc[nH]n23)cc1	-8.0%	-0.3%
O=C(c1ccccc1)N(Cc1ccco1)Cc1cccs1	1.0%	-7.8%
COc1ccc(C(=O)OCC[N+]2(C)CCCCC2)cc1	-12.7%	-9.4%
Cc1ccc(S(=O)(=O)N2CCN(c3ncnc4sccc34)CC2)cc1C	?	?
O=C(c1ccc(F)cc1)n1nc(-c2ccc(Cl)cc2)nc1NCc1ccco1	-25.8%	-15.0%
Cn1cnnc1SCc1ccc(C(=O)N=Nc2c(O)n(Cc3ccc(Cl)cc3)c3ccccc23)cc1	?	?
O=C(NN=Cc1ccc2c(c1)OCO2)C1CC1	i	2.0%
COc1ccc(-c2nc(CS(=O)CC(=O)NC3CCCc4ccccc43)c(C)o2)cc1OC (stereo not given)	i	-3.1%
Cc1ccc(NC(=O)C2Cc3ccccc3O/C2=N\O)cc1C (stereo not given)	i	-17.3%
COc1cc(NC(C)CCCN)c2nc(C)ccc2c1Oc1ccc(F)cc1 (stereo not given)	?	-20.8%
COc1ccc2c(c1)CCC/C2=N\Nc1nc(C(=O)NN)cs1	?	-17.8%
